StopGo RLuc: Primary qHTS Assay for Foot and Mouth Disease Virus Antivirals against NCGC Sytravon and CBC Compound Libraries: Renilla Luciferase Signal; HEK cells with a luciferase reporter of 2A StopGo recoding; Potency, µM (top dose mostly 57.5 µM), inactives show top-dose signal change, negative = less light; actives 0.32% (n = 120,000); AID 1745857, 2022; active means well fitted falling curve with a large enough effect; inconclusive means small, poorly fitted or top-dose-only effect; inactive means no such curve, though single readings can be large or run the other way; note: nearly all actives have a fitted effect of over 55% in size; overnight with compound
2A firefly: Primary qHTS Assay for Foot and Mouth Disease Virus Antivirals against NCGC Sytravon and CBC Compound Libraries: Firefly Luciferase Signal | HEK cells with a luciferase reporter of 2A StopGo recoding | Potency, µM (titrated, usually from 57.5 µM), inactives show top-dose signal change, negative = less light | actives 0.23% (n = 120,000) | AID 1745856, 2022; active = well fitted falling curve with a large enough effect; inconclusive = small, poorly fitted or top-dose-only effect; inactive = no such curve, though single readings can be large or run the other way; note: nearly all actives have a fitted effect of over 60% in size; overnight with compound
* hit, by the source's call; ? = inconclusive; & = joins results of further samples; [ ] = remark or other dose. % is set by controls: 0 for no effect and ±100 for the full control effect; potency is the fitted concentration of half-maximal effect.

SMILES	StopGo RLuc	2A firefly
COC(=O)c1ccc(NC(=O)N2CCN(Cc3cc(=O)n4nc(-c5ccc(C)cc5)sc4n3)CC2)cc1	-8%	-11%
CC(C)(Oc1ccc(Cl)cc1)C(=O)Nc1cc(C(C)(C)C)no1	0%	0%
Cc1ccc(-n2ncc(C(=O)N3CCN(C(=O)c4ccco4)CC3)c2C2CCN(C(=O)OC(C)(C)C)CC2)cc1	-6%	-22%
Cn1cc(C(C(=O)O)N2CCC(Cc3ccccc3)CC2)c2ccc(C(=O)O)cc21 (configuration not stated)	-11%	-1%
CCOc1cc(C(=O)N2CCN(C(=O)OC(C)(C)C)CC2)ccc1OC	15%	21%
Cc1ccc(-n2c(SCC(=O)NCc3ccccc3)nc3c([nH]c4ccccc43)c2=O)cc1	3%	9%
Cc1ccc(C(CNC(=O)c2oc3ccc(F)cc3c2C)N2CCC(C)CC2)o1 (configuration not stated)	-33%	-25%
Cc1ccc(-c2ccsc2C(=O)N2CCN(S(=O)(=O)c3ccc(F)cc3F)CC2)cc1	?	?
COCCCN1CCc2nc(SCC(=O)Nc3ccc(C)c(Cl)c3)[nH]c(=O)c2C1	4%	-1%
COc1ccc(C)cc1NC(=O)c1cnc(N2CCCCC2)c2ccccc12	0%	17%
CCCOc1ccc(C(C)NC(=O)c2snnc2CC)cc1OC (configuration not stated)	22%	13%
COc1ccc(OC)c(C2C=C(c3cccc(Br)c3)Nc3nnnn32)c1 (configuration not stated)	0%	20%
C=CCOc1ccc(CNCC2CC2)cc1	21%	19%
Cc1cc(C)c(C#N)c(SCC(=O)Nc2ccccc2C#N)n1	11%	69%[activator]
CCN(CC)CCCNC(=O)c1cn(CC)c2ccc(S(=O)(=O)N3CCC(C)CC3)cc2c1=O	-5%	-15%
COc1ccccc1CNC(=O)C1CCCN(S(=O)(=O)c2ccc3c(c2)oc(=O)n3C)C1 (configuration not stated)	15%	?
CCOC(=O)CCCCN(Cc1ccccc1F)S(=O)(=O)c1ccc(F)c(C(=O)Nc2cc(Cl)cc(Cl)c2)c1	-14%	-22%
CCCNC(=O)c1cccc(NC(=O)c2ccncc2)c1	37%[activator]	9%
c1ccc(-c2nnc3sc(Cn4cccn4)nn23)cc1	-3%	0%
CCC1CCc2sc(-c3nnc(SCC(=O)NC(C)(C)C)n3C)cc2C1 (configuration not stated)	-26%	0%

Reformatted: four of the compounds above.
Structure,StopGo RLuc,2A firefly
COc1ccc(OC)c(C2C=C(c3cccc(Br)c3)Nc3nnnn32)c1 (configuration not stated),0%,20%
C=CCOc1ccc(CNCC2CC2)cc1,21%,19%
Cc1cc(C)c(C#N)c(SCC(=O)Nc2ccccc2C#N)n1,11%,69%[activator]
CCN(CC)CCCNC(=O)c1cn(CC)c2ccc(S(=O)(=O)N3CCC(C)CC3)cc2c1=O,-5%,-15%

Other entries
SMILES	StopGo RLuc	2A firefly
CSC(C)C(=O)Nc1cccc(I)c1 (configuration not stated)	12%	33%[activator]
COc1ccc(NC(=O)c2c(NC(=O)CNCC(C)C)sc3c2CCC(C(C)(C)C)C3)cc1 (configuration not stated)	-1%	7%
Cc1cc(NC(=O)Nc2nnc(N(C)Cc3ccccc3)s2)ccc1Br	-5%	4%
O=C(NC1C2CC3CC(C2)CC1C3)c1cc(-c2cccnc2)nc2ccc(Cl)cc12 (configuration not stated)	-5%	3%
CCc1ccccc1N1C(=O)N(C)c2ccccc2S1(=O)=O	0%	-12%
CCOc1cc(C(=O)OC(C)C(N)=O)ccc1OCC(C)C (configuration not stated)	4%	10%
O=C(O)CCCC(=O)N1CCNCC1	2%	3%
O=C(N/N=C/c1cccs1)c1ccc(NC(=O)c2ccccc2)cc1	12%[1.06 µM]	-4%
CC(=O)Nc1ccc(Nc2cc(C)nc3c(-c4ccc(Cl)cc4)cnn23)cc1	?	21%
CCC(Oc1ccc(F)cc1)C(=O)Nc1c(C(=O)c2ccc(C)cc2)oc2ccccc12 (configuration not stated)	-12%	-6%
Cc1ccc(S(=O)(=O)Nc2nc3ccc(C)cc3nc2Nc2ccc3c(c2)OCO3)cc1	-5%	14%
CC1CCCC(NC(=S)Nc2ccccc2)C1C (configuration not stated)	122%[activator]	10%
Cc1ccc2c(c1)N(C(=O)N1CCC(C(=O)NC3CCCCCC3)CC1)CC(C)O2 (configuration not stated)	-10%	44%[activator]
O=C(O)C/C(=C/c1c(Cl)cccc1Cl)c1nc2ccccc2o1	21%	-3%
Cc1ccc(CNC(=O)c2oc3ccc(S(=O)(=O)N4CCCC(C)C4)cc3c2C)cc1 (configuration not stated)	5%	-14%
CC1CCCCC1NC(=O)c1ccc(C#N)cc1 (configuration not stated)	3%	20%
CCc1ccccc1NC(=O)CN(c1ccccc1)S(=O)(=O)c1ccsc1C(=O)OC	20%	-12%
Cn1cc(S(=O)(=O)N2CCCCCC2)cc1C(=O)Nc1ccccc1F	29%	-9%
COc1ccccc1-c1noc(-c2ccc(NCc3ccco3)c([N+](=O)[O-])c2)n1	7%	195%[activator]
Cc1cccc(-c2nc(CCNC(=O)Cc3ccccc3)cs2)c1	15%	-3%

As a short view, some entries already given.
SMILES	StopGo RLuc	2A firefly
Cn1cc(S(=O)(=O)N2CCCCCC2)cc1C(=O)Nc1ccccc1F	29%	-9%
COc1ccccc1-c1noc(-c2ccc(NCc3ccco3)c([N+](=O)[O-])c2)n1	7%	195%[activator]
Cc1cccc(-c2nc(CCNC(=O)Cc3ccccc3)cs2)c1	15%	-3%

(more compounds)
SMILES	StopGo RLuc	2A firefly
Cc1cc(/C=C/C(=O)c2ccc(O)c(CCCl)c2)cc(C)c1OC(F)F	?	-15%
Cc1ccc(C)c(N2CCN(C(c3ccccc3)c3nnc(-c4ccccc4)o3)CC2)c1 (configuration not stated)	2%	2%
NCCCC(N)(C(=O)O)C(F)F (configuration not stated)	-8%	-16%
Cn1ccc2cc(S(=O)(=O)N3CCCC(C(=O)NCc4ccc(F)cc4)C3)ccc21 (configuration not stated)	37%[activator]	-9%
CCc1ccc(NC(=O)Nc2ccccc2OCc2cc(=O)n3ccccc3n2)cc1	-3%	54%[activator]
COc1ccc(CCNC(=O)Cn2c(=O)nc(-c3ccccc3F)c3cc(Cl)ccc32)cc1OC	-7%	38%[activator]
Cc1ccc(C)n1-c1nnc(N2CCC(C(=O)Nc3ccccc3Br)CC2)s1	-33%	20%
COC(=O)C1CN(Cc2ccccc2)CCS(=O)(=O)N1Cc1ccc(C(F)(F)F)cc1 (configuration not stated)	?	?
COc1ccc(C2N=C(N)Nc3nc4ccccc4n32)cc1 (configuration not stated)	-16%	26%
COc1ccccc1CNC(=O)CSc1nc2ccccc2nc1N1CCCC1	23%	-6%
Cc1ccc(S(=O)(=O)N(CC(=O)N2CCN(C(=O)c3ccco3)CC2)Cc2ccco2)cc1C	131%[activator]	-7%
COc1ccc(C(=O)Oc2ccc(C(=O)c3ccc(OC)cc3)cc2)cc1	-8%	-3%
Cc1ccsc1/C=N/N=C1c2ccccc2-c2ccccc21	9%	0%
CC(C)(C)C1CCc2nc(NC(=O)c3ccc([N+](=O)[O-])cc3)sc2C1 (configuration not stated)	-3%	-19%
CCn1nc(C)cc1-c1nn2c(-c3cccc(Cl)c3Cl)nnc2s1	15%	0%
COc1ccc(N2CCN(c3ncnc4c3nnn4C)CC2)cc1	-15%	-25%
COc1cccc(-c2nnc(SCC(=O)N3CCCCC3)o2)c1	10%	98%[activator]
Cc1cccc(NC(=O)Cn2cc(C(=O)c3ccco3)c3ccccc32)c1	339%[activator]	21%
Cc1c(C)c2ccc(OCC(=O)NCCCN3CCCC3=O)cc2oc1=O	5%	17%
Cc1ccc(S(=O)Cc2nc(-c3ccc(C(=O)NCc4cccc(C)c4)cc3)oc2C)cc1 (configuration not stated)	-3%	-11%
CCCOc1ccc(/C=C(/C#N)c2nc3ccccc3[nH]2)cc1	-15%	181%[activator]
O=S(=O)(NCc1ccc(Cl)cc1)c1ccc(-c2cnc(C3CC3)o2)cc1	71%[activator]	-15%
N[C@@H](Cc1ccccc1)c1nnc(SCc2ccc(Br)cc2)o1	-8%	-5%
CCOc1ccc(Cn2c(=O)oc3ccccc32)cc1	30%	62%[activator]
CC(=O)c1ccc(C(=O)N(C)Cc2ccncc2)s1	-15%	-10%
Cc1cc(C)cc(NC(=O)CSc2ncc(CO)n2CC(=O)NC(C)C)c1	7%	11%
COC(=O)C(C#N)c1nc2ccccc2nc1NCC(C)(C)CN(C)C (configuration not stated)	-8%	1%
Cc1ccc(-c2nc(CSCC(=O)NCCCOC(C)C)c(C)o2)cc1	-5%	17%
C=C(Cl)CN1CCC(C(=O)NCCc2ccccc2F)CC1	12%	142%[activator]
O=C(Oc1ccc2cc(-c3ccccc3)c(=O)oc2c1)N1CCOCC1	-2%	138%[activator]
CCOC(=O)C(CC)Oc1ccc2c(=O)c(Oc3ccccc3Br)coc2c1 (configuration not stated)	0%	0%
COc1cc(NC(=O)CCc2c[nH]c3ccccc23)cc(OC)c1OC	8%	19%
CCOc1ccc(NC(=O)Cn2cc(C(=O)c3ccc(C)c(C)c3)c(=O)c3cc(OC)c(OC)cc32)cc1	-18%	-12%
CCC(CC)c1nnc(NC(=O)COc2ccc3c(C)cc(=O)oc3c2)s1	-6%	2%
Cc1ccc(C2C(C#N)=C(N)OC3=C2C(=O)CCC3)cc1 (configuration not stated)	10%	-1%
CCc1nnsc1C(=O)NCC(C)(C)c1ccc(Br)cc1	20%	1%
Cc1nn(CCCC(=O)NCCc2ccc(Cl)cc2)c(=O)c2c1sc1ccccc12	-11%	0%
O=C(/C=C/c1ccsc1)c1ccccc1	18%	0%
c1ccc(-c2cc(NC3CCCC3)nc3ccccc23)cc1	-37%	-15%
Cc1ccsc1CNC(C(N)=O)c1ccccc1 (configuration not stated)	11%	7%
O=C(NCc1ccc2c(c1)OCO2)c1n[nH]nc1Nc1ccc(OCc2ccccc2)cc1	?	?
CS(=O)(=O)c1ccc(C(=O)N2CCCC(c3nc4ccccc4[nH]3)C2)cc1 (configuration not stated)	5%	3%
O=C(Cn1cc(S(=O)(=O)Cc2ccccc2F)c2ccccc21)NCc1ccccc1	-4%	-9%
CCc1nn2c(=O)cc(CN(CC)C3CCCC3)nc2s1	-12%	-13%
COc1ccc(OC)c(CCNC(=O)CS(=O)(=O)Cc2nc(-c3cccc(Cl)c3)oc2C)c1	-1%&6%	1%&-9%
Cc1cccc(CSc2cn(CC(=O)N3CCOCC3)c3ccccc23)c1	62%[activator]	138%[activator]
COc1ccccc1/C=C/c1nc(C#N)c(N2CCN(c3ccccc3)CC2)o1	-5%	-8%
COc1ccccc1N1CCN(S(=O)(=O)c2c(C)sc3ncn(CC(=O)Nc4cccc(Cl)c4)c(=O)c23)CC1	-16%	-10%
CCCC(=O)Nc1c(C(=O)OCC)[nH]c2ccc(F)cc12	19%	18%
COc1ccccc1CNC(=O)c1ccc2cn[nH]c2c1	1%	0%
N#C/C(=C\c1ccccc1)C(=O)Nc1ccc(Br)cc1C(=O)c1ccccc1	17%	17%
CCc1ccc2c(CN3C(=O)C(=O)N(CC(C)C)C3=O)cc(=O)oc2c1	-6%	149%[activator]
Cc1cc(C(=O)NCc2ccc(F)cc2)c2ccccc2n1	4%	7%
CCCc1c(C)nc2ncnn2c1Nc1ccccc1	1%	4%
CCC1CN(C(=O)c2cnn(-c3ccccc3F)c2C(F)(F)F)CCO1 (configuration not stated)	5%	25%
COc1ccc2c(c1)Cc1sc(NC(=O)c3ccccc3Cl)nc1-2	-7%	85%[activator]
Cn1c(=O)n(CC(=O)N2CCCC2)c(=O)c2cc(S(=O)(=O)Nc3cccc(Cl)c3)ccc21	15%	-6%
COc1ccc(NC(=O)C(C)n2nnc3sc(-c4ccccc4)cc3c2=O)cc1Cl (configuration not stated)	7%	16%
O=C(OCCOc1cccc(Cl)c1)c1ccccc1C(=O)c1ccccc1	0%	28%
Cc1ccc(/C=N/NC(=O)c2ccc(-c3ccccc3)cc2)c(C)c1	-2%	12%
More results:
SMILES	StopGo RLuc	2A firefly
O=C(Nc1cccc(C(F)(F)F)c1)C1CCN(S(=O)(=O)c2cccs2)CC1	-18%	-26%
CCOc1ccc2c(=O)c(Oc3ccccc3)c(C)oc2c1	1%	13%
COc1cccc(NC(=O)c2cc3c(=O)n4cccc(C)c4nc3n2Cc2ccccc2)c1	-1%	13%
COc1ccc(S(=O)(=O)NCC(c2ccco2)N2CCN(c3ccccc3F)CC2)cc1OC (configuration not stated)	75%[activator]	-19%
Cc1ccccc1S(=O)(=O)Cc1ccc(C(=O)NCCc2ccccc2)o1	14%	101%[activator]
O=C(C1CCC1)N1CCc2cc(S(=O)(=O)NCc3ccc(F)cc3)ccc21	211%[activator]	4%
CCCCn1c(SCC(=O)NCc2ccc3c(c2)OCO3)nc2cc(C(=O)OC)ccc2c1=O	31%[activator]	18%
CCOc1ccc(NC(=O)C(=O)NCc2ccco2)cc1	-1%	17%

Whole records as entered above:
Entry for COc1cccc(NC(=O)c2cc3c(=O)n4cccc(C)c4nc3n2Cc2ccccc2)c1 = StopGo RLuc = -1%; 2A firefly = 13%
Entry for COc1ccc(S(=O)(=O)NCC(c2ccco2)N2CCN(c3ccccc3F)CC2)cc1OC (configuration not stated) = StopGo RLuc = 75%[activator]; 2A firefly = -19%

Only part of the results is shown. The share of hits here may be higher or lower than overall.
